NPYLR7 ag – agonists of mosquito NPYLR7 receptor, primary screen, cell-based, Aedes aegypti, calcium fluorescence, mosquito biting behavior; AID 1259423, 2018; actives 0.15% (n = 270,000); activation, % at 10 µM; HEK293T NPYLR7/Galpha15, GCaMP6s calcium fluorescence; in the data active = activation above about 40%;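 also: 0% = vehicle and 100% = reference agonist at the receptor; some compounds past the cut are filed as inactive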
NPYLR7 ag max-min – further read-out of NPYLR7 ag, marked with its call; activation, %; measured here: Max-Min RFU normalised activation; some inactives read as strong as hits;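 span of the calcium signal over five minutes; 0% = vehicle and 100% = native peptide agonist; compound fluorescence can raise it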
Active calls of the source: *; & = joins results of further samples. A portion of the library, so the mix of outcomes need not match the whole.

SMILES | NPYLR7 ag | NPYLR7 ag max-min
COc1cccc(COCC(O)CSc2nc(C)cc(C)c2C#N)c1 (centres undefined) | 27 | 17
CC(O)CN(Cc1ccccc1)Cc1nc2sc(C(C)C)cc2c(=O)[nH]1 (centres undefined) | -3 | 1
CC1CCC(NC(=O)C2CC(=O)N(N(C)c3ccccc3)C2)CC1 (centres undefined) | 2 | -3
COc1ccccc1C(=O)N(Cc1c(-c2ccc(F)cc2)noc1N1CCOCC1)C(C)C | 12 | 17
CCOC(=O)CCC(=O)Nc1ccccc1C1SCC(=O)N1c1ccc(F)cc1F (centres undefined) | 29 | 33
COc1ccc(-c2ccc(N3CCCC(C(=O)NN4CCN(C)CC4)C3)nn2)cc1 (centres undefined) | -5 | -10
CCOc1ccc(-c2cc(=O)n(CC(=O)c3ccccc3)cn2)cc1 | -20 | -23
CC(=O)Nc1cc(F)c(F)cc1NC(=O)/C=C/c1ccsc1 | 3 | 1
CCOC(=O)Cc1c(Sc2ccccc2)c2ccccc2n1C | 2 | 2
O=S(=O)(Nc1ccc(S(=O)(=O)C2CCCC2)cc1)c1ccccc1C(F)(F)F | -2 | -4
CN(C(=O)c1ccn(-c2ccccc2F)n1)c1cn[nH]c(=O)c1 | 6&2 | 2&2
CCN(C(=O)/C=C(/C)C12CC3CC(CC(C3)C1)C2)C1CCS(=O)(=O)C1 (centres undefined) | 1 | 12
COc1ccccc1/C=C/C=C1\N=C(c2ccccc2F)OC1=O | -2 | -5
CCOc1cc(CNc2nnn(C)n2)cc(Br)c1OCc1ccccc1Cl | 0 | 0
Cc1nnc(NC(=O)c2cn(C)cc3c(=O)n(-c4ccccc4)nc2-3)s1 | 3 | 1
Fc1ccccc1CSc1nncn2c1cc1occc12 | 2 | 0
CC(=O)c1cccc(NC(=O)C2CCN(C(=O)c3cccs3)CC2)c1 | 0 | -1
Cc1ccc(-n2ncc3c(=O)n(NC(=O)c4cc(Cl)ccc4[N+](=O)[O-])cnc32)cc1C | 1 | -1
CC1CCCCN1CCCNC(=O)CN1C(=O)C2CCCCN2C(=O)c2ccccc21 (centres undefined) | 6 | 8
CCOC(=O)c1cc(-c2ccc(F)cc2)n(C2CCN(S(=O)(=O)c3cccc(Cl)c3)CC2)n1 | 22 | 12
CN(CC1CCOCC1)C(=O)C1CCC(=O)N(CCc2ccccn2)C1 (centres undefined) | 13 | 13
CN(CCc1ccccc1)C1CCCN(C(=O)c2c[nH]c(=O)[nH]2)C1 (centres undefined) | -1 | -2
Cc1c(C)n2c3c(=O)[nH]c(=O)n(C)c3nc2n1CCCN1CCc2ccccc2C1 | 1 | -5
CN(Cc1ccc(C#CCO)s1)C1Cc2ccccc2C1 | 2 | 0
CCCc1nnc(NC(=O)Cc2ccc(N3CCCC3=O)cc2)s1 | 0 | -3
Brc1ccccc1C1N=C2c3c(sc4c3CCCC4)N=CN2N1 (centres undefined) | -2&-5 | -2&-7
O=S(=O)(Nc1ccc(F)cc1F)c1cc(Cl)cc(Cl)c1 | 9 | 14
CCN1C(=O)c2cc(NS(=O)(=O)Cc3ccccc3)ccc2Oc2ccccc21 | 8 | 6
CC(C(=O)NN)C1=NC(C)(C)Cc2ccccc21 (centres undefined) | -8 | -20
Cc1ncc(CN(C)C(C#N)c2c(F)cccc2Cl)s1 (centres undefined) | 2 | 1
COCCN(CCOC)C(=O)CN1C(=O)NC2(CCCc3sccc32)C1=O (centres undefined) | 2 | 6
CCOC(=O)C1=CN(c2ccc(C)c(C)c2)C=C(C(=O)OCC)C1c1ccccc1F | 2 | 9
CC(C(=O)N(C)Cc1ccccc1)S(=O)(=O)Cc1ccn(C)c(=O)c1 (centres undefined) | 12 | 9
CCOc1ccccc1CN(C(=O)c1ccc(OC)o1)C1CC1 | -5 | -13
CC(c1cncs1)N(C)C(=O)c1cc(Cn2cnc3ccccc32)[nH]n1 (centres undefined) | 0 | -3
Cc1cccc(C(=O)OCC(=O)c2ccc3ccccc3c2)c1O | -9 | -15
CN(C)C1CCCN(Cc2nnc(C3CC3)o2)CC1 (centres undefined) | 5 | 4
CCOc1ccc(-c2cnc[nH]2)cc1OCC | -4 | -6
COC(=O)c1cc(-c2ccc(C=C3C(=O)NC(=O)NC3=O)o2)ccc1Cl | -7 | -12
COC1CCN(C(=O)CC2C(=O)NCCN2Cc2ccc(F)cc2Cl)CC1 (centres undefined) | 12 | 13
CCOC(=O)c1cc(C#N)c(SCc2ccc(C(=O)N3C4CCC3CC(Oc3ccc5c(c3)OCO5)C4)cc2)nc1C (centres undefined) | 0 | -6
CCCC(=O)Nc1c(-c2ccc(OC)c(OC)c2)nc2ccccn12 | -2 | 7
COC[C@H](C)NC(=O)c1ccc(-c2n[nH]c3c2CCc2cc(OC)ccc2-3)cc1 | 4 | 1
CCCCCC(=O)Nc1c(-c2cccc(Cl)c2)nc2cc(C)ccn12 | -18 | -13
O=C1c2ccccc2C(=O)c2c1oc1c3c(ccc21)OCN(CC1CCCO1)C3 (centres undefined) | 5 | 7
COc1cccc(C(=O)N2CCC(C(NC(=O)C3CC3)C(=O)N3CCCC3)CC2)c1 (centres undefined) | -5 | 8
Cc1cc(C)nc(CN2CCN(CC(C)C)C(=O)C2C)n1 (centres undefined) | 19 | 21
Cc1cc(C2=NNC(=NC3CCCC3)SC2)c(C)n1C1CC1 | -3 | 3
CCC1(C(=O)NCc2ccc(-n3nc(C)cc3C)nc2)CCC1 | -23 | -27
CCC/C=C/c1ccc(CN2CCCC2)cn1 | 5 | 3
O=C(NNc1nc2c(Cl)cccc2s1)c1cc(=O)c2ccccc2o1 | 3 | -2
COCc1cn(C2CCN(C(=O)C3CCCCCC3)CC2)nn1 | 2 | 0
COc1ccc(CCNC(=O)c2cc(-c3ccc(Cl)cc3)n(-c3ccc4c(c3)OCO4)c2C)cc1OC | 0 | 7
C=CCn1c(SC(CCC)C(=O)OCC)nnc1-c1ccc(OC)cc1 (centres undefined) | -6 | 0
O=C(c1ccc(CSc2nncs2)cc1)N1C2CCC1CC(Oc1ccc3c(c1)OCO3)C2 (centres undefined) | 9 | -1
CCCc1cc(=O)[nH]c2nnc(SCC(=O)N3CC(C)OC(C)C3)n12 (centres undefined) | -4 | -2
CSCCNc1nc2nonc2nc1NC1CCCC1 | 3&-1 | 3&-4
CN(CCN1CCOCC1)c1ccc(Cl)c(C#N)n1 | 0 | -2
COc1ccc(C=C2C(=O)NC(=O)N(c3ccccc3OC)C2=O)cc1Br | -3 | -6
O=C(CCN1C(=O)c2ccccc2C1=O)Nc1ccc(I)cc1 | -4 | -11

Additional structures:
SMILES | NPYLR7 ag | NPYLR7 ag max-min
CCC1CN(CCC(=O)NCCC2COc3ccccc3O2)Cc2cc(OC)ccc2O1 (centres undefined) | 15 | 5
Cc1ccccc1N1CCN(C(=O)NCCC(C)C)CC1 | 20 | 7
Cc1ccc(C(=O)N2CCCC(O)(CO)C2)cc1N1CCNC1=O (centres undefined) | 5 | -3
CCOC(=O)CN1C(=O)CCN(C(=O)C2CC2)CC(OC)c2ccccc21 (centres undefined) | 7 | 16
CC1(C)CC(=O)C2=C(C1)OC(=N)C(C#N)C2c1cccs1 (centres undefined) | -19 | -24
COc1ccc(CCOC(=O)C2CCCCN2C(=O)CC2Cc3ccccc3C2)cc1OC (centres undefined) | -8 | -14
Cc1ccc2nc(N(Cc3cccnc3)C(=O)c3ccc([N+](=O)[O-])o3)sc2c1 | -9 | -9
CC(C)N(CC(=O)N1CCc2sccc2C1c1ccc(Cl)cc1Cl)C(=O)C(Cl)c1ccccc1 (centres undefined) | -10 | -11
CC(C)c1nccn1C(C)C(=O)NCc1cc2ccc(F)cc2[nH]c1=O (centres undefined) | 3&15 | -2&9
O=C1CCCCCN1CC(=O)N1CCc2onc(-c3ccccc3)c2C1 | 1 | 1
CCOC(=O)c1c(N=CC2=C(O)CC(C)(C)CC2=O)sc(C(C)=O)c1C | -15 | -21
COc1ccc(NC2CCCN(C(=O)c3cc4ccccc4o3)C2)cc1 (centres undefined) | 17 | 9
CN(Cc1nc2ccccc2c(=O)[nH]1)C(=O)c1ccc2c(c1)OCCCO2 | 10 | 4
Cc1cc(C(=O)Nc2ccc(C(N)=O)cc2)c(C)s1 | 19 | 18
CN(C)c1ccc(/C=N\Nc2cc(N3CCOCC3)nc(N3CCOCC3)n2)cc1 | -4 | -7
COc1ccc(CNC(=O)N2CCc3nc(Nc4cc(OC)c(OC)c(OC)c4)ncc3C2)cc1 | -3 | -6
CCC1(C)Cc2c(sc3nn[nH]c(=O)c23)CO1 (centres undefined) | 6 | 4
Cc1cc(C(=O)CSc2nnc(-c3cccs3)o2)c(C)n1-c1ncn[nH]1 | -4 | -6
COC(=O)CC1=CC(C)(CC(=O)OC)C(C#N)(C#N)C(=N)C1C#N (centres undefined) | 4 | 2
CCN(C)c1nc(-c2cccc(C)c2)ncc1C(=O)O | 32 | 14
N#Cc1c(CN2CCC(C(N)=O)CC2)cn2ccccc12 | 2 | 1
CNCC(=O)N1CCCC(c2nc3c(C)cccc3[nH]2)C1 (centres undefined) | 2 | -16
CCS(=O)(=O)N1CCC(NS(=O)(=O)c2ccc(F)cc2Cl)CC1 | -1 | -4
CCCCN(CC(=O)Nc1cc(-c2ccccc2)nn1-c1ccccc1Cl)C(=O)COCc1ccccc1 | 19 | 24
CCOc1cc(C)c(C(C)C)cc1S(=O)(=O)N1CCC(C(N)=O)CC1 | 2 | -5
Cc1occc1C(=O)NNC(=O)c1ccc(C(C)C)cc1 | -4 | -5
Cc1ccc(Cl)c2sc(N(CCN3CCOCC3)C(=O)c3ccc([N+](=O)[O-])cc3)nc12 | 10 | 4
COc1ccnc(CN2CCC=C(C(C)NC(C)=O)C2)c1OC (centres undefined) | 8 | 17
CC(C)CCn1c(SCCN2CCOCC2)nc2c1c(=O)[nH]c(=O)n2C | 3 | 2
COc1ccc(NC(=O)N2CCN(C(=O)c3cc4ccsc4n3CCCc3ccccc3)CC2C)cc1 (centres undefined) | -1 | 5
CN(N=O)C(=O)N[C@@H]1[C@@H](O)[C@H](O)[C@@H](CO)O[C@@H]1O | 1&-6 | -3&-10
COC(=O)c1cc(C)nc(N2CC3ON=C(c4c(F)cccc4Cl)C3C2)n1 (centres undefined) | -1 | -4
Cn1c(CCNC(=O)OC(C)(C)C)nc2ccc(F)cc21 | 5 | 1
O=C(NCc1ccc2c(c1)OCO2)c1ccccc1NS(=O)(=O)c1ccc(Cl)cc1 | -2 | 4
Nc1cc(-c2ccc(Br)cc2)no1 | 6 | 6
O=C(CCCn1nc(-c2ccco2)ccc1=O)N1CCc2ccccc21 | 2 | 3
Cc1cc(N(C)C)nc(NCCNC(=O)/C=C/c2ccccc2)n1 | 0 | 0
O=C(NCCCNC(=O)[C@H]1CCCN1C(=O)c1ccc(Cl)c(Cl)c1)c1ccc(F)cc1 | -8 | -6
CSCC(=O)N1CCOC(CCc2ccccc2)C1 (centres undefined) | 15 | 8
COc1ccc(CCNC(=O)c2ccccc2N2CCC(NC(=O)c3ccc(F)cc3)CC2)cc1 | -2 | 1
Cc1ccc(NC(=O)NCC2CCCN2S(=O)(=O)c2ccc(C)cc2)cc1 (centres undefined) | 8 | 2
Cc1cc(C(=O)NCC2CCS(=O)(=O)C2)c(C)n1CC(F)(F)F (centres undefined) | 5 | 3
N#CCC1c2cccnc2C(=O)N1CC(=O)OCc1ccccc1 (centres undefined) | 4 | 11
CC(C)C[C@@H](N)C(=O)NCc1ccc2nsnc2c1 | 6 | 5
CCc1nn2c(ncc3c(=O)n(-c4ccc5c(c4)OCO5)ccc32)c1-c1ccc(OC)cc1 | 5 | 3
O=C1C(=O)N(CN2CCC(C(=O)N3CCCCCC3)CC2)c2ccc(F)cc21 | 4 | 1
OC(CN1C2=NCCCN2c2ccccc21)c1ccc2c(c1)OCO2 (centres undefined) | 3 | 1
COC(=O)c1ccc(/C=C2/NC(=S)NC2=O)cc1 | -4 | -8
CCOC(=O)CNC(=O)N1CCC(CC2CCCCO2)(C(=O)OCC)CC1 (centres undefined) | 0&15 | -8&13

Part of the list above, as comma-separated lines:
molecule,NPYLR7 ag,NPYLR7 ag max-min
Cn1c(CCNC(=O)OC(C)(C)C)nc2ccc(F)cc21,5,1
O=C(NCc1ccc2c(c1)OCO2)c1ccccc1NS(=O)(=O)c1ccc(Cl)cc1,-2,4
Nc1cc(-c2ccc(Br)cc2)no1,6,6
O=C(CCCn1nc(-c2ccco2)ccc1=O)N1CCc2ccccc21,2,3
Cc1cc(N(C)C)nc(NCCNC(=O)/C=C/c2ccccc2)n1,0,0
O=C(NCCCNC(=O)[C@H]1CCCN1C(=O)c1ccc(Cl)c(Cl)c1)c1ccc(F)cc1,-8,-6
CSCC(=O)N1CCOC(CCc2ccccc2)C1 (centres undefined),15,8
COc1ccc(CCNC(=O)c2ccccc2N2CCC(NC(=O)c3ccc(F)cc3)CC2)cc1,-2,1
Cc1ccc(NC(=O)NCC2CCCN2S(=O)(=O)c2ccc(C)cc2)cc1 (centres undefined),8,2
Cc1cc(C(=O)NCC2CCS(=O)(=O)C2)c(C)n1CC(F)(F)F (centres undefined),5,3
N#CCC1c2cccnc2C(=O)N1CC(=O)OCc1ccccc1 (centres undefined),4,11
CC(C)C[C@@H](N)C(=O)NCc1ccc2nsnc2c1,6,5
CCc1nn2c(ncc3c(=O)n(-c4ccc5c(c4)OCO5)ccc32)c1-c1ccc(OC)cc1,5,3
O=C1C(=O)N(CN2CCC(C(=O)N3CCCCCC3)CC2)c2ccc(F)cc21,4,1
OC(CN1C2=NCCCN2c2ccccc21)c1ccc2c(c1)OCO2 (centres undefined),3,1
